# Mtb betalactam = beta-lactam sensitization of Mtb H37Rv, H37Rv; M. tuberculosis H37Rv growth with meropenem, percent inhibition; hits of this screen are not shown here; 330,000 tested, 0.27% active; inhibition, % at 25 µM;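 active = about 74% or more and at least 40 points above the plate without the antibiotic, then above 30% in a dose series; inconclusive = first-round hits that could not be retested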;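 also: growth measured after seven days incubation then overnight dye step; 0% = bacteria only wells and 100% = bacteria with antibiotic; twin plates without the antibiotic show which effects depend on it; some results filed as inactive read as strong as hits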
# Arbovirus inh = antivirals against arbovirus infection, primary screen, cell-based, full library, 10K replicate subset | AID 1251, 2008 | 200,000 tested, 0.37% active | arbovirus infection cell-based antiviral screen | inhibition, % at 10 µM;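 active = inhibition from about 30%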;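 also: bluetongue infection of BSR cells; cell survival read as ATP light after 72 h; 0% = infected wells without compound and 100% = uninfected wells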
# YopH inh = YopH tyrosine phosphatase inhibitors, primary screen, biochemical, fluorescence Ex485/Em525; YopH tyrosine phosphatase [Yersinia enterocolitica]; inhibition, %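 (about 10 µM by stock and volumes)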; 140,000 tested, 0.16% active;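 active = inhibition of 50% or more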;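 also: controls were vehicle for no effect and minimum signal wells for full effect; inactives centre near -20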
# RecA splice inh = Mtb RecA intein splicing inhibitors, primary screen, biochemical, fluorescence, HTS; Protein RecA (Mycobacterium tuberculosis (strain ATCC 25618 / H37Rv)), P9WHJ3; cell-free RecA intein splicing; inhibition, %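 (about 9 µM by stock and volumes)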; 290,000 tested, 0.75% active; AID 2221, 2009; in the data active = inhibition above about 30%; inconclusive = no clear call, values can overlap the other calls;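 also: 0% = vehicle wells and 100% = reference inhibitor control wells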
# Target sequence (P9WHJ3 whole entry, looked up, canonical isoform): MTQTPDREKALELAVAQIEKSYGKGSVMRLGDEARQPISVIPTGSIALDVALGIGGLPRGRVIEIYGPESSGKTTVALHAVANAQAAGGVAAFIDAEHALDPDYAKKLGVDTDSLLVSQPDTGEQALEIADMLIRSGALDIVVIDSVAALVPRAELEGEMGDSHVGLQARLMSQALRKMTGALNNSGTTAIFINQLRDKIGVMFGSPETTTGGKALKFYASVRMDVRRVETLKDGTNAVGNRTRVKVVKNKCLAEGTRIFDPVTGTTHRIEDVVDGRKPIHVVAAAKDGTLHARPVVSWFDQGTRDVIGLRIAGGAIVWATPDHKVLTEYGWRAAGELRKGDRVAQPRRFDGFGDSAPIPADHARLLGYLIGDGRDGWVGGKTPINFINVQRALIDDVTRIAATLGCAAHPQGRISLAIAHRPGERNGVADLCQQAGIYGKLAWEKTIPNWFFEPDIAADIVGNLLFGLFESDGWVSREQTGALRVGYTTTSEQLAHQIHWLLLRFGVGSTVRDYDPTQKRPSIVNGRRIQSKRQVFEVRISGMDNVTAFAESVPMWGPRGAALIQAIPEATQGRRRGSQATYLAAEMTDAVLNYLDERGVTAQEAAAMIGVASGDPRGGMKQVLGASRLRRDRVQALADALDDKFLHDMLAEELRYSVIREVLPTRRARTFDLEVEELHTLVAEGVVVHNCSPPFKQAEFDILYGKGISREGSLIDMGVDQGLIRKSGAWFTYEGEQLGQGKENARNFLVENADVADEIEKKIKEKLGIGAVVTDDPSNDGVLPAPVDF
# Mtb growth = M. tuberculosis H37Rv growth inhibitors, H37Rv strain (AID 1626); 220,000 tested, 0.95% active; one-dose inhibition, % at 10 µM; IC50 in µM for titrated hits; M. tuberculosis H37Rv growth inhibition; higher % means a stronger effect;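 active = confirmed in a dose series; inconclusive = inhibition above 80% but not taken into the dose series; inactive = below 80% or under 30% at every dose of the series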;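 also: bacteria incubated seven days before Alamar blue readout; 0% = bacteria only wells and 100% = bacteria with antibiotic wells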
# Arbovirus inh repeat = second read-out of Arbovirus inh, no call of its own (marks repeat the call); inhibition, %; measured here: 10K subset replicate screen; many hits read low in the repeat;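 first of two repeat runs on a subset; 0% = infected and 100% = uninfected wells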
# An asterisk follows results filed as active; u = inconclusive; x = no result given.
# Sample of the layout (two entries):
SMILES,Mtb betalactam,Arbovirus inh,YopH inh,RecA splice inh,Mtb growth,others
COc1cc(C(=O)NNC(=S)NC(=O)c2ccc3c(c2)OCO3)cc(OC)c1OC,39,x,x,-9.2,u,
COc1cccc(C(=O)Nc2ccc3c(c2)CCCN3C(=O)c2cccs2)c1OC,95,x,x,9.5,x,

# This part in full (from the top)
SMILES,Mtb betalactam,Arbovirus inh,YopH inh,RecA splice inh,Mtb growth,others
COc1cc(C(=O)NNC(=S)NC(=O)c2ccc3c(c2)OCO3)cc(OC)c1OC,39,x,x,-9.2,u,
COc1cccc(C(=O)Nc2ccc3c(c2)CCCN3C(=O)c2cccs2)c1OC,95,x,x,9.5,x,
CCOc1ncccc1C(=O)NCC1COc2ccccc2O1 (stereo unspecified),6,3,-1,-0.4,0%,
CCOC(=O)C1=C(COC(=O)C2(C)CC2(Cl)Cl)NC(=O)NC1c1ccc(OC)cc1 (stereo unspecified),-3,4,x,2.7,-12%,
Cc1cccc(NC(=O)CSc2ccc(-c3ccco3)nn2)c1C,-2,-7,-39,-2.6,-8%,
COC(=O)C(NC(=O)c1ccco1)(Nc1nc(C)cs1)C(F)(F)F (stereo unspecified),1,5,-24,0.2,-2%,
CN(CC(=O)Nc1cc(S(=O)(=O)N2CCOCC2)ccc1Cl)C1CCS(=O)(=O)C1 (stereo unspecified),-9,8,x,-1.2,0%,
CCOC(=O)c1ccc(NC(=O)c2cn(-c3ccccc3)nc2-c2ccncc2)cc1,-2,15,-4,0.4,8%,
Cc1cc(-c2nn(-c3ccccc3F)cc2CN(C)CC(O)CO)c(C)s1 (stereo unspecified),0,-3,x,0.2,2%,
OCC1(Cc2ccccc2)CCN(Cc2cnc(-c3cccc4ccccc34)nc2)CC1,10,10,x,1.9,4%,
Cc1nc2sc(C(c3cccs3)N3CCC4(CC3)OCCO4)c(O)n2n1 (stereo unspecified),1,5,-12,-2.7,-9%,
CC(=O)Nc1cc(C(C)C)c(O)c(C(C)C)c1,-2,-5,-46,-3.2,-1%,
COc1ccccc1CCC(=O)NCCCn1ccc2ccccc21,-4,x,x,2.3,x,
COC(=O)c1ccccc1NC(=O)N1CSC[C@H]1C(=O)OC,0,0,-13,-0.2,-9%,
Cc1cccc(NC(=O)C2CCN(S(=O)(=O)c3c(C)c(C)cc(C)c3C)CC2)n1,-5,x,x,14,x,
CC(C)CCNC(=O)c1ccc2c(c1)N(Cc1ccccc1)C(=O)CS2=O (stereo unspecified),-3,-6,-44,-0.2,-4%,Arbovirus inh repeat=-1
CN(C)S(=O)(=O)c1cccc(NC(=O)CSc2nncn2C)c1,0,x,x,-2.1,-7%,
Clc1cccc(CSc2ccc(-c3cccnc3)nn2)c1,29,-29,x,5.1,x,
CC(=O)c1cccc(NC(=O)C(=O)c2cn(CC(=O)N3CCCCC3)c3ccccc23)c1,-3,8,x,-7.3,8%,
C/C(=N/NC(=O)CNC(=O)c1cccc(F)c1)c1ccc2c(c1)CCCC2,3,3,x,-2.7,-9%,
CCOc1ccccc1NC(=O)CCS(=O)(=O)c1cccc2nonc12,33,6,-25,x,3%,Arbovirus inh repeat=1
C/C(=N\NC(=O)COc1ccc(C(C)(C)C)cc1)c1ccc2c(c1)OCCO2,4,8,-41,8.0,2%,
CC1(C)CC(=O)c2cc(NC(=O)c3ccccc3)c(=O)oc2C1,-6,5,-8,-4.9,-15%,
CCOC(=O)c1[nH]ncc1CN1CCCC(C(=O)c2ccc(C(C)(C)C)cc2)C1 (stereo unspecified),2,1,x,5.0,-4%,
Cc1cc(F)ccc1S(=O)(=O)N1CCCOC1CNC(=O)C(=O)NCCc1ccccc1 (stereo unspecified),-10,x,x,-0.2,x,
Cc1cnc([N+](=O)[O-])n1CCOC(=O)NC(=O)c1ccccc1Cl,-4,1,x,-0.7,-6%,
COC(=O)CCCCCCCCCC[N+]1(C)CCCCC1,-5,2,-8,2.8,6%,
CCC(=O)N1CCc2cc(Br)cc(S(=O)(=O)NCCCN(CC)Cc3ccccc3)c21,6,x,x,0.0,x,
COc1ccccc1N1CCN(C2CCCN(C(=O)CCC(=O)N(C)C)C2)CC1 (stereo unspecified),1,x,x,-1.2,x,
CC(=O)N(C(C)=O)n1c(/C=C/c2ccc([N+](=O)[O-])cc2)nc2ccccc2c1=O,1,12,x,-4.9,0%,
CC(=O)Nc1ccc(S(=O)(=O)Nc2cccc(-n3c(C)nc4ccccc4c3=O)c2)cc1,-9,x,x,-0.7,x,
Cc1cc(OCC(=O)NNC(=S)NC(=O)c2ccc(Br)o2)ccc1Cl,1,x,x,-0.6,x,
Cc1cccc(/C(N)=N/OC(=O)c2ccc(Br)o2)c1,-1,1,-11,2.0,53%,
COc1cccc(C(=O)NCCS(=O)(=O)NCc2cccnc2)c1,-13,x,x,1.7,x,
O=C(CCN1C(=O)C2C3CCC(C3)C2C1=O)OCC(=O)c1ccc(Cl)cc1 (stereo unspecified),8,x,x,-1.6,x,
CC(C)c1nn2c(N)c(/C=C3\C=Nc4ccccc43)c(=O)nc2s1,-9,x,x,-9.2,-1%,
O=C(CCC(=O)c1cccs1)NC1CCCCCC1,-5,10,x,x,-2%,
O=C(NCCc1nc2ccccc2[nH]1)c1ccc([N+](=O)[O-])cc1,-5,x,x,-1.6,-10%,
CN(C)S(=O)(=O)N1CCC(Oc2cccc(C(=O)NCCC3=CCCCC3)c2)CC1,u,x,x,0.5,x,
CCOC(=O)N1C(=O)[C@](CC)(c2ccccc2)N1C(=O)OCC,29,x,x,1.6,x,
CC(=O)N1CCc2cc(S(=O)(=O)NC(C(=O)NC(C)c3ccccc3)C(C)C)ccc21 (stereo unspecified),-3,x,x,-2.1,x,
O=C(CNC(=O)C(c1ccccc1)c1ccccc1)OCc1ccccc1,-4,3,x,0.0,-3%,
O=C1N[C@@H](Cc2ccccc2)C(=O)N2[C@H]1C[C@]1(Br)c3ccccc3N(S(=O)(=O)c3ccc(F)cc3)[C@H]21,-11,x,x,6.8,-8%,
COc1ccc(C(=O)CCC(=O)N2CCN(c3ccc(C)cc3)C(C)C2)cc1 (stereo unspecified),79,x,x,3.9,x,
CCOc1ncccc1C(=O)NCCc1c[nH]c2ccccc12,-4,x,x,1.7,x,
CN=C1S/C(=C\c2cc(C)n(-c3ccccc3F)c2C)C(=O)N1C,96,4,-21,11,3%,
Cc1cc(OC(=O)N(C)C)nc(SCc2c(Cl)cccc2Cl)n1,-2,x,x,x,-2%,
CCOC(=O)[C@@H]1[C@H]2COc3ccccc3[C@H]2N2C(=O)N(c3ccc(Cl)cc3)C(=O)[C@]12C,-4,x,x,4.8,x,
CCCN(CC(=O)Nc1ccccc1C)C(=O)c1ccc(COc2ccccc2)cc1,-6,x,x,8.8,x,
CCCCOc1cccc(C2/C(=C(\O)c3ccc4c(c3)OCCO4)C(=O)C(=O)N2CCN2CCOCC2)c1 (stereo unspecified),-2,x,x,-0.7,x,
CCNC(=S)N1CCC(Cc2ccccc2)CC1,0,x,x,-1.0,x,
COC(=O)CCCC1=CC2=C(c3ccccc3)C(=O)C(C)(OC(=O)C3CCCC3)C(=O)C2=CN1CC(C)C (stereo unspecified),-11,x,x,12,-9%,
CC(=O)N1CCOc2ccc(S(=O)(=O)N3CCCC(C)C3)cc21 (stereo unspecified),-12,x,x,-1.0,x,
CCOc1cc2[nH]c(=S)n(CCN3CCC(C)CC3)c(=O)c2cc1OCC,-10,2,-38,0.0,-1%,
COc1cc(N/N=C(\C)c2ccc(N)cc2)nc(-c2ccccc2)n1,98,1,x,-3.0,44%,
COc1ccc(-n2c(N)cc(=O)nc2SCC(=O)N2CCN(c3ccccc3)CC2)cc1,u,x,x,1.2,x,
Cc1ccc(-c2csc(N/N=C/c3ccco3)n2)cc1,93,24,-17,2.7,9%,
COc1cccc(C(CC(=O)O)NS(=O)(=O)c2ccc3c(c2)N(C(C)=O)CC(C)O3)c1 (stereo unspecified),-8,x,x,-3.1,x,
Nc1nc(CSc2nnnn2-c2ccc(Cl)cc2)nc(N2CCOCC2)n1,-5,-3,-1,0.8,-2%,
N=c1sccn1CC(=O)NCCc1ccc(Cl)cc1Cl,-18,-7,-18,x,-11%,

# 4 records picked at random from the list so far:
SMILES,Mtb betalactam,Arbovirus inh,YopH inh,RecA splice inh,Mtb growth,others
Cc1ccc(-c2csc(N/N=C/c3ccco3)n2)cc1,93,24,-17,2.7,9%,
COC(=O)c1ccccc1NC(=O)N1CSC[C@H]1C(=O)OC,0,0,-13,-0.2,-9%,
Clc1cccc(CSc2ccc(-c3cccnc3)nn2)c1,29,-29,x,5.1,x,
Cc1cccc(/C(N)=N/OC(=O)c2ccc(Br)o2)c1,-1,1,-11,2.0,53%,

# (next part)
SMILES,Mtb betalactam,Arbovirus inh,YopH inh,RecA splice inh,Mtb growth,others
CCCCNC(=S)N/N=C/c1cc(C)ccc1C,76,-4,-30,4.7,76%,
CS(=O)(=O)c1ccc(NCC2CCCO2)c([N+](=O)[O-])c1 (stereo unspecified),-2,x,x,-1.3,x,
O=C(CN(C(=O)c1ccc(Cl)cc1)N1C(=O)C2CCCCC2C1=O)c1ccc(Cl)cc1 (stereo unspecified),-5,-1,2,-0.3,5%,
C/C(=N\NC(=O)Cn1c(-c2ccccn2)nc2ccccc21)c1cccc(O)c1,-4,8,x,x,-4%,
COc1ccc(-c2csc(NCc3ccco3)n2)cc1C,0,0,-20,7.4,6%,
COc1ccccc1NC(=O)C(=O)NCCC1CCCCN1S(=O)(=O)c1ccccc1 (stereo unspecified),-9,x,x,-2.0,x,
O=C(CCCc1ccccc1)NCCS(=O)(=O)N1CCN(c2ccc(F)cc2)CC1,-12,x,x,-0.3,x,
Cc1nc2c(ncn2-c2ccccc2)c(=O)n1NC(=O)CN1CCCCC1,-4,x,x,1.7,-11%,
CN(C)c1ccc(-c2nnn(CC(=O)N3c4ccccc4CCc4ccccc43)n2)cc1,2,2,-6,14,3%,
CC(NC(=O)COc1ccc(-c2nnco2)cc1)c1ccc(Cl)cc1Cl (stereo unspecified),4,-3,7,0.2,0%,
COCc1cc(=O)n2[nH]c(-c3ccc(C)cc3)cc2n1,1,-7,-33,0.5,-6%,
COc1ccc(/C=C/c2nc(N)nc(-c3ccccc3O)n2)cc1,6,1,-18,-1.3,-1%,
CCn1c(=O)c2c(nc3n2CCCN3Cc2ccccc2)n(C)c1=O,2,x,x,0.9,x,
O=C(O)c1cccc(-n2cccc2/C=C2/SC(=O)N(CC(=O)N3CCCC3)C2=O)c1,-1,x,x,4.1,x,
O=C(Cn1cc(C(F)(F)F)ccc1=O)N/N=C/c1cccc(Cl)c1,5,-4,-21,-1.7,16%,
COc1ccccc1N1CCN(C(=O)CCS(=O)(=O)c2ccc3c(c2)NC(=O)C(C)S3)CC1 (stereo unspecified),-3,x,x,-1.1,x,
O=c1c(C=Nc2ccc(Cl)cc2)c[nH]n1-c1cccc(Cl)n1,1,-4,-7,1.8,-5%,
O=C(OCC(=O)N1CCCC1)c1c2c(nc3ccccc13)CCCCC2,7,8,x,0.5,10%,
Cc1ccc(CN2CCN(Cc3ccccc3F)CC2)cc1,-2,-11,x,4.0,-12%,
Cc1sc2ncnc(OCC(=O)N3CCN(C(=O)c4ccco4)CC3)c2c1C,0,23,x,-0.4,-9%,
O=C(CN(C(=O)CCC(=O)Nc1ccccn1)c1cccc(F)c1)NCc1ccc2c(c1)OCO2,-7,x,x,-3.2,x,
S=c1[nH]nc(Nc2ccc(Cl)cc2)s1,-1,x,x,-2.7,-1%,

# Part of the list above in order of number of heavy atoms, high to low:
SMILES,Mtb betalactam,Arbovirus inh,YopH inh,RecA splice inh,Mtb growth,others
Nc1nc(CSc2nnnn2-c2ccc(Cl)cc2)nc(N2CCOCC2)n1,-5,-3,-1,0.8,-2%,
O=C(OCC(=O)N1CCCC1)c1c2c(nc3ccccc13)CCCCC2,7,8,x,0.5,10%,
CN=C1S/C(=C\c2cc(C)n(-c3ccccc3F)c2C)C(=O)N1C,96,4,-21,11,3%,

# The list is partial; count on the stated rates, not on these rows.
